Cruzain inh noDet: inhibitors of Trypanosoma cruzi cruzain without detergent. P25779. purified cruzain, Z-FR-AMC fluorescence, no detergent. Potency, µM, for inactives: max response, negative = inhibition, actives largely listed as inhibitors. 200,000 tested, 2.3% active. AID 1476; active means well fitted curve in the direction sought with a large enough effect; inconclusive means small, poorly fitted or top-dose-only effect, or another doubt; inactive means no such curve, though single readings can be large; an effect the other way counts as inactive or inconclusive;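 further: plate controls were enzyme without inhibitor for no effect and buffer without enzyme for full effect; nearly all actives have a fitted effect of over 40% in size; top concentration of the series not given in the record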
Target sequence (P25779 123-467 limits assumed): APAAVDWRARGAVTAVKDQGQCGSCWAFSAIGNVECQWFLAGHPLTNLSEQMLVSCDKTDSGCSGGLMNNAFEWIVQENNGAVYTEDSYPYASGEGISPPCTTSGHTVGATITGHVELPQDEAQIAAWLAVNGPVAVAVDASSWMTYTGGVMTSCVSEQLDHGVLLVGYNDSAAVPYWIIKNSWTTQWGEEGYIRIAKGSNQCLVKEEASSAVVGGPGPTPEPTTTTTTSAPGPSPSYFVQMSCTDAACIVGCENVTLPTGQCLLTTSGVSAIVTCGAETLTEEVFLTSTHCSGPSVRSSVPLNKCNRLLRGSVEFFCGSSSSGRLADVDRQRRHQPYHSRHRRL
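Purified cruzain at 1.5 nM, pre-incubated 15 min with compound at room temperature in 100 mM sodium acetate pH 5.5, 5 mM DTT, 0.00005% Triton X-100. Reaction started with 2 uM Z-FR-AMC; AMC fluorescence increase over 60 s gives rate.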
Marburg entry inh: Marburg virus entry inhibition; Marburg virus pseudotyped entry inhibition, cell reporter; control for the full effect not named in the record; about a third of the inactives were read at about 46 µM; Potency, µM (series often up to 37.8 µM), for the others: at the highest dose activity change, negative = inhibition, most hits filed as inhibitors; 300,000 tested, 1.8% active; active = well fitted inhibition curve with a large enough effect; inconclusive = small, poorly fitted or top-dose-only effect, or effect the other way; inactive = flat fitted curve, though single readings scatter; tested in HEK293 cells; about a fifth of its hits are not listed in these tables; further: on the % scale 0 is the no-effect control and ±100 the full control effect; luciferase read-out
2A StopGo: FMDV 2A StopGo reporter, luciferase signal; AID 1159524; 410,000 tested, 1.2% active; human cells with a luciferase reporter of 2A StopGo recoding; control for the full effect not named in the record; Potency, µM (titrated, usually from 57.9 µM), inactives show at the highest dose signal change, negative = less light; active = well fitted falling curve with a large enough effect; inconclusive = small, poorly fitted or top-dose-only effect; inactive = no such curve, though single readings can be large or run the other way; tested in HEK293T cells; further: on the % scale 0 is the no-effect control and ±100 the full control effect; nearly all actives have a fitted effect of over 45% in size; luciferase light after 4 h
Lassa entry inh: blocks Lassa virus binding to or entry into cells. Lassa virus pseudotype entry inhibition, cell reporter; control for the full effect not named in the record. Potency, µM (highest dose often 37.9 µM), for inactives: at the top dose activity change, negative = inhibition, actives largely listed as inhibitors. 300,000 tested, 1.2% active; active means well fitted inhibition curve with a large enough effect; inconclusive means small, poorly fitted or top-dose-only effect, or effect the other way; inactive means flat fitted curve, though single readings scatter; tested in HEK293 cells; further: on the % scale 0 is the no-effect control and ±100 the full control effect; nearly all actives have a fitted effect of over 50% in size; luciferase read-out
SARS PLP yeast: SARS-CoV PLP inhibition in yeast; AID 485353; Potency, µM (doses to about 32.9 µM), for the others: at the highest dose activity, positive = growth rescue; S. cerevisiae expressing SARS-CoV PLpro, growth rescue; control for the full effect not named in the record; 330,000 tested, 0.19% active; further: 0% is about no effect; nearly all actives have a fitted effect of over 55% in size; growth read by luminescence after 48 h
Cruzain inh Det: inhibitors of Trypanosoma cruzi cruzain with detergent. P25779. purified cruzain, Z-FR-AMC fluorescence, 0.01% Triton. 200,000 tested, 0.43% active. Potency, µM, for inactives: max response, negative = inhibition, most hits filed as inhibitors; active means well fitted curve in the direction sought with a large enough effect; inconclusive means small, poorly fitted or top-dose-only effect, or another doubt; inactive means no such curve, though single readings can be large; an effect the other way counts as inactive or inconclusive;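 further: plate controls were neutral wells for no effect and buffer without enzyme for full effect; nearly all actives have a fitted effect of over 40% in size; top concentration of the series not given in the record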
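Steps: dispense cruzain (1.5 nM final) in acetate buffer pH 5.5 with DTT and 0.01% Triton X-100; pin-transfer compounds; incubate 15 min RT; add Z-FR-AMC (2 uM final); read fluorescence every 30 s, using the 60 s intensity change.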
RE007 growth inh: less growth of the S. pombe RE007 Vpr strain. S. pombe RE007 Vpr strain, BacTiter-Glo ATP luminescence, 24 h; control for the full effect not named in the record. Potency, µM (series often up to 92.2 µM), without a hit: at the highest dose activity change, negative = less growth. AID 651644. 360,000 tested, 0.21% active; active = well fitted falling curve with a large enough effect; inconclusive = small, poorly fitted or top-dose-only effect; inactive = no such curve, though single readings can be large or run the other way;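 further: on the % scale 0 is the no-effect control and ±100 the full control effect; nearly all actives have a fitted effect of over 50% in size; the assay follows cell death caused by Vpr and the record does not say whether a fall means rescue or toxicity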
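Fission yeast strain RE007, carrying one chromosomally integrated HIV-1 vpr copy, was seeded at OD 0.01 in PMG+AL medium with 23 nL pinned compound. After 24 h at 30 °C and 99% humidity, viability was read by BacTiter-Glo luminescence.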
NS1 function inh: influenza NS1 inhibition | S. cerevisiae slowed by influenza A NS1, growth recovery by OD600 | 270,000 tested, 0.4% active | Potency, µM (titrated, usually from 46.1 µM), for inactives: at the top dose activity, positive = more growth; further: actives are rising curves; nearly all actives have a fitted effect of over 50% in size
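S. cerevisiae expressing influenza A NS1, grown in glucose, washed, then diluted 1:100 into pH 6.0 -URA galactose medium with 23 nl compound. Growth recovery read as OD600; NS1-free strain serves as control.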
Numbers without * were called inactive; ? = inconclusive; . = no result given; & = joins results of further samples; [ ] = dose if it differs, or a comment. Unless noted, the call rests on the fitted dose curve; in most records, active means well fitted rising curve with a large enough effect; inconclusive means small, poorly fitted or top-dose-only effect; inactive means no such curve, though single readings can be large or run the other way. Potency means the concentration at half of the fitted maximal effect.

molecule | Cruzain inh noDet | Marburg entry inh | 2A StopGo | Lassa entry inh | SARS PLP yeast | Cruzain inh Det | RE007 growth inh | NS1 function inh
O=C(CSc1nnc(NC(=O)c2cc(Br)ccc2Cl)s1)NCC1CCCO1 (stereo not drawn) | . | -16%[46.1 µM] | -1% | -2%[46.1 µM] | -2% | . | -8% | -2%
CC(C)CNC(=O)CC(=O)N/N=C/c1ccc(F)cc1 | -12% | -1% | 9% | 6% | -38% | -0.9% | -3% | -5%
COc1cc(SC)ccc1C(=O)NCCCOC(C)C | -2% | 21% | 24% | 8% | 1% | 5.7% | -6% | -7%
CC(C)Sc1cc(Cl)nc(NC(=O)Nc2ccccc2)n1 | . | . | 70%[activator] | . | -1% | . | 18% | 1%
NS(=O)(=O)c1ccc(N=Cc2ccc(Br)s2)cc1 | -5% | 1% | -12% | -6% | 3% | -0.6% | -14% | 22%
COc1ccc(-c2cn3c(n2)sc2cc(C(=O)NCc4cccs4)ccc23)cc1 | 3% | . | 13% | 0%[46.1 µM] | . | -4.4% | . | .
CC(C)(C)NC(=O)CN(Cc1cccs1)C(=O)CNS(=O)(=O)c1ccccc1 | 0% | -4% | 20% | 21% | 9% | 3.0% | 0% | -6%
COc1ccc(-c2nnc(SCC(=O)NC3CC3)o2)c(OC)c1 | . | 9% | -15% | 10% | 3% | . | -18% | .
CN1CCN(C2=Nc3c(Cl)cc(Cl)c4cccc2c34)CC1 | . | ? | -23% | 11% | -3% | . | -23% | 1%
COc1ccc(Nc2ncc(F)c(N3CCOCC3)n2)cc1 | . | . | -2% | . | 0% | . | -15% | -3%
Cc1c(N2C(=O)C(=O)/C(=C(/O)c3ccc(Cl)cc3)C2c2ccccc2)c(=O)n(-c2ccccc2)n1C (stereo not drawn) | 19% | 13% | -14% | -9% | -5% | -8.5% | -15% | 2%
CC(C)N1CCc2c(sc(NC(=O)CCS(=O)(=O)c3ccccc3)c2C(N)=O)C1 | . | . | 12% | . | -4% | . | -12% | -3%

4 structures from above, sorted by heavy-atom count, smallest number first.
molecule | Cruzain inh noDet | Marburg entry inh | 2A StopGo | Lassa entry inh | SARS PLP yeast | Cruzain inh Det | RE007 growth inh | NS1 function inh
CC(C)CNC(=O)CC(=O)N/N=C/c1ccc(F)cc1 | -12% | -1% | 9% | 6% | -38% | -0.9% | -3% | -5%
CC(C)(C)NC(=O)CN(Cc1cccs1)C(=O)CNS(=O)(=O)c1ccccc1 | 0% | -4% | 20% | 21% | 9% | 3.0% | 0% | -6%
COc1ccc(-c2cn3c(n2)sc2cc(C(=O)NCc4cccs4)ccc23)cc1 | 3% | . | 13% | 0%[46.1 µM] | . | -4.4% | . | .
Cc1c(N2C(=O)C(=O)/C(=C(/O)c3ccc(Cl)cc3)C2c2ccccc2)c(=O)n(-c2ccccc2)n1C (stereo not drawn) | 19% | 13% | -14% | -9% | -5% | -8.5% | -15% | 2%

Next part
molecule | Cruzain inh noDet | Marburg entry inh | 2A StopGo | Lassa entry inh | SARS PLP yeast | Cruzain inh Det | RE007 growth inh | NS1 function inh
COc1cc2nc(CN(C)CC(=O)Nc3ccc(N4CCOCC4)cc3)[nH]c(=O)c2cc1OC | ? | ? | 0% | 7% | -5% | 5.7% | 0% | -9%
CCOc1ccc(S(=O)(=O)Nc2ncn[nH]2)cc1 | . | -2%[46.1 µM] | -1% | -1%[46.1 µM] | 1% | . | 7% | -9%
COc1cccc(CNC(=O)Cn2cc3c(n2)CCCCC3)c1 | 4% | . | -24% | . | 1% | 1.0% | 7% | -6%
CN1CC(C(=O)c2ccc([N+](=O)[O-])cc2)C(c2ccc(Cl)cc2)C1 (stereo not drawn) | . | -23%[46.1 µM] | -18% | 4% | 2% | . | -9% | 8%
CC(Nc1c([N+](=O)[O-])c(=O)oc2ccccc12)C(Cl)c1ccccc1 (stereo not drawn) | -5% | ? | ? | -10% | -11% | -5.2% | 7% | -8%
O=C(O)c1ccccc1Sc1ccccc1S(=O)(=O)NC1CCCCC1 | . | 9%[14.2 µM] | -1% | -23% | 1% | . | -5% | 3%
CC1CCCCN1CCCNC(=O)CN1C(=O)c2cccnc2Oc2ccccc21 (stereo not drawn) | . | 7%&7%[46.1 µM] | 0%&5% | 21%&3%[46.1 µM] | -2% | . | -4% | -5%
S=C(Nc1ccc(Oc2ccccc2)cc1)N1CCN(c2ccccn2)CC1 | . | ? | 0% | ? | -1% | . | -19% | 3%
CC(O)/C=C/c1cccc[n+]1C (stereo not drawn) | -7% | ? | . | -9% | -3% | 2.4% | -11% | 13µM*
CCc1cccc2sc(NC(=O)c3ccc(N4C(=O)CCC4=O)cc3)nc12 | 7.9µM* | 7% | 0% | 4% | 15% | 1.6% | 13% | -7%
CCCC(=O)Nc1cc2nn(-c3ccc(OC)cc3)nc2cc1C | 5% | . | 48%[activator] | 19%[46.1 µM] | . | -0.2% | . | .
COC(=O)c1ccc(Oc2c(Cl)cccc2[N+](=O)[O-])cc1 | 11% | -1% | -10% | 2% | 7% | -3.5% | -23% | -1%
CCOc1ccc(NC(=O)CN(C)C(=O)c2ccc(OCC(=O)N3CCOCC3)c(OC)c2)cc1OCC | . | -11% | 5% | 0% | . | . | -7% | .
C=CCNC(=O)c1oc2ccc(S(=O)(=O)N3CCCCC3)cc2c1C | . | . | -15% | . | 2% | . | 9% | -23%
COc1ccc(-c2cn3ccccc3n2)cc1OC | 0% | ? | 44%[activator] | -13% | -11% | -10% | -29% | -18%
O=C(Nc1ccc(-n2cccn2)cc1)C1CCCCN1Cc1cccc2cccnc12 (stereo not drawn) | . | ? | 8% | -10%[46.1 µM] | 0% | . | 7% | -8%
Cc1ccnc(NC(=O)CCC(=O)c2cccs2)c1 | . | ? | 14µM* | ? | -4% | . | ? | .
C=CCNC(=O)CN1CCC(O)(c2ccc(F)cc2)CC1 | -4% | 7% | . | 16% | 3% | 5.4% | -7% | 2%
Cc1ccc(S(=O)(=O)NCc2ccc(C(=O)NCCN(Cc3ccccc3)C(C)C)cc2)cc1 | . | 11µM* | 0% | -29%[46.1 µM] | 0% | . | 3% | .
O=P(COCCO)(c1ccccc1)c1ccccc1 | 6% | 20% | -11% | -2% | 4% | 3.1% | -9% | ?
C=CCn1c(SCC(=O)Nc2ccc(-c3nc4ccc(C)cc4s3)cc2)nnc1-c1ccccc1 | ? | ? | -42% | ? | -6% | -13% | 4% | 3%
CCN(C(=O)COC(=O)C1CCN(S(=O)(=O)c2ccc(C)c(C)c2)CC1)C1CCS(=O)(=O)C1 (stereo not drawn) | . | 0% | 16% | 8% | -10% | . | 3% | .
CCCS(=O)(=O)N1CCc2ccc(NC(=O)C3CCCO3)cc2C1 (stereo not drawn) | . | ? | -16% | -8% | 3% | . | 29% | 0%
Cn1nc(C(=O)O)c(=O)n(C)c1=O | . | 4%[46.1 µM] | -1% | 7%[46.1 µM] | . | . | -1% | .
COc1ccc(Cl)cc1-n1c(/C=C/c2cccc3ccccc23)nc2ccccc2c1=O | 32µM* | . | -22% | 9%[46.1 µM] | . | 0.5% | . | .
O=C(Cn1ccc2cc(S(=O)(=O)N3CCCCC3)ccc21)NCCc1ccccc1Cl | ? | . | 27% | -18%[46.1 µM] | . | -6.7% | . | .
O=C(CNC(=O)c1cccs1)N/N=C/c1ccccc1[N+](=O)[O-] | . | ? | 49%[activator] | ? | -2% | . | -6% | 8%
O=C(CN1CCCCCC1)Nc1cccc2c1OCO2 | -11% | -4% | . | 1% | -4% | -1.5% | -10% | -11%
COc1ccc(C(=O)Nc2ccc(S(=O)(=O)N3CCCCC3)cc2)cc1OC | ? | ? | -28% | -9% | -8% | -2.7% | 12% | -46%
COc1ccc(NC(=O)COc2ccc3oc(=O)cc(C)c3c2)cc1 | . | 16% | 0% | -4% | 0% | . | 27% | 1%
COc1ccc(/C=N/NC(=O)CSCC(=O)Nc2ccccc2)cc1OC | -7% | 2% | 8% | 41%[14.3 µM] | 9% | 4.5% | -6% | 22%
CCCCNC(=O)c1onc(CSc2ccncc2)c1C(=O)NCCCC | . | . | -7% | . | 4% | . | 3% | 6%
Cc1ccc(C)n1C1CCS(=O)(=O)C1 (stereo not drawn) | -4% | -26% | 15% | -24% | 4% | 1.1% | 11% | 3%
COCCOC(=O)/C(=C\c1cc(C(C)(C)C)c(O)c(C(C)(C)C)c1)C(C)=O | . | . | ? | . | -7% | . | -5% | -65%
O=C(CCN1C(=O)c2ccccc2S1(=O)=O)Nc1ccccc1 | . | . | -2% | . | 0% | . | 1% | 1%
COc1ccc2c(c1)[nH]c1c(=O)n(/N=C/C3C(C)C=C(C)CC3C)c(=O)[nH]c12 (stereo not drawn) | . | ? | 0% | -1% | 6% | . | 10% | .
COc1ccc2cc(S(=O)(=O)c3ccccc3)c(=O)oc2c1 | . | 1% | -30% | . | 1% | . | -1% | -1%
COc1cc(C2NC(=O)NC3=C2C(=O)OC3)cc(OC)c1OC (stereo not drawn) | . | . | 17% | . | 0% | . | 5% | 2%
CN(C)/C=C1\C(=O)N(C)N=C1C(F)(F)F | . | -2%[46.1 µM] | -6% | 4%[46.1 µM] | 1% | . | ? | .
O=c1cc(C(F)(F)F)nc(SC/C=C/c2ccccc2)[nH]1 | . | . | -9% | . | -8% | . | -25% | -42%
Cc1ccc2nc(-c3ccc(NC(=O)CN4CCN(c5ccccn5)CC4)cc3)sc2c1 | . | ? | 15% | -19% | -1% | . | -6% | 1%
COc1ccc(NC(=O)Nc2nnc(Cc3ccc(OC)c(OC)c3)s2)cc1 | . | . | -5% | . | 6% | . | 6% | 22%

No enrichment for hits; overall some 4.8% were active at least once.
